Source: PubChem BioAssay
HSD17B inh – HSD17B dehydrogenase inhibition; recombinant HSD17B10, NADH fluorescence kinetic; many of its hits are not listed in these tables; Potency, µM (highest dose often 57.1 µM), inactives show top-dose activity change, negative = inhibition, usual class: inhibitors; actives 7.6% (n = 75,000); AID 893; active = well fitted inhibition curve with a large enough effect; inconclusive = small, poorly fitted or top-dose-only effect; inactive = no such curve, though single readings can be large or run the other way;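 note: the protocol describes HADH2 (HSD17B10) and not the HSD17B4 of the title; nearly all actives have a fitted effect of over 70% in size; most hits overshoot -100% by far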
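Enzyme plus compound, 15 min room temperature; substrate mix added (NAD+ 1 mM, beta-hydroxybutyryl-CoA 90 uM final); plates read kinetically for NADH fluorescence. HADH2 was His-tagged, E. coli-derived, 20 nM.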
* marks the source's active call; other numbers are inactive results; u = inconclusive; & = joins results of further samples; [ ] = dose if it differs, or a comment. % is set by controls: 0 for no effect and ±100 for the full control effect; potency is the fitted concentration of half-maximal effect.

SMILES	HSD17B inh
CS(=O)(=O)N(Cc1ccc(C(=O)NC2CCCCC2O)cc1)c1ccccc1 (centres undefined)	9%
CC(NC(=O)c1cccnc1)C(=O)N1CCCCC1 (centres undefined)	-1%
CCOC(=O)COc1ccc(CCNC(C)=O)cc1	0%
C=CCN(CC=C)C(=O)CN1C(=O)c2ccccc2C1=O	-1%
CCCCn1nnnc1NCc1ccc(OC)c(OC)c1	3%
O=C(O)CCc1ccc(-c2cccs2)o1	20µM*
c1ccc(CSc2nnnn2-c2cccc3ccccc23)nc1	0%
CNC(=O)OC(C)CNS(=O)(=O)c1ccc(C)cc1 (centres undefined)	9%
CC1CCN(CCNC(=O)c2ccc(NC(=O)C3CCCO3)cc2)CC1 (centres undefined)	8%
COc1ccc(OC)c(C(=O)COC(=O)c2ccccc2O)c1	20%
O=C(CSc1nc2ccccc2o1)NC(=O)NCc1ccco1	-14%
O=C(CN1CCC(C(=O)c2ccc3c(c2)OCCO3)CC1)NC1CCCC1	22%
O=C(NC1CCCCC1)C1CCN(C(=O)NCc2ccccc2)CC1	17%
CC(C)(C)C(=O)COC(=O)c1ccc(O)cc1	10%
c1ccc(Cn2nnc3c(N4CCC5(CC4)OCCO5)ncnc32)cc1	-8%
Cc1nn(CC(=O)Nc2cccnc2N2CCOCC2)c(=O)c2ccccc12	10%
C=CC(=O)NC(C)C	-4%
CC[C@@H]1CC(=O)N(SC[C@H](N)C(=O)O)C1=O	-3%[11.4 µM]
CN1c2ccccc2C(C)(C)C12CCCC(=O)N2 (centres undefined)	-11%
CCCOc1ccc2c(C)c(CC(=O)OC)c(=O)oc2c1	25µM*
O=C(CCCc1nc(-c2ccccc2)no1)N1CCOCC1	-2%
O=C(CSc1nc(-c2ccc(F)cc2)cc(C(F)(F)F)n1)NCCN1CCOCC1	4%
O=C(Nc1ccc(Cl)cn1)Nc1cccs1	-23%
Oc1ccc(Cl)cc1Cc1cc(Cl)cc(Cc2cc(Cl)ccc2O)c1O	3%[11.4 µM]
O=C(CSCCO)Nc1cccc(C(F)(F)F)c1	-1%
COc1ccc(COCC(O)CN2CCOCC2)cc1OC (centres undefined)	1%
Cc1ccc(-c2nnn(CC(=O)Nc3ccc(S(=O)(=O)N4CCC(C)CC4)cc3)n2)cc1	-7%
COc1ccc(C2C(C#N)=C(N)Oc3n[nH]c(C)c32)cc1CN1CCN(c2ccc(F)cc2)CC1 (centres undefined)	u
COc1cccc(-c2nnc(N(C)C(=O)C3CCOC3)s2)c1 (centres undefined)	47%[activator]
COC(=O)[C@@H]1C[C@H]2CC[C@H](O)C[C@H]2N1Cc1ccccc1OS(=O)(=O)c1ccc(C)cc1	8%
COc1ccc(NCc2nnc(SCC(=O)N3CCCc4ccccc43)n2C)cc1	-6%
CCOC(=O)CNC(=O)CSc1ncnc2c1nnn2-c1ccc(F)cc1	8%
COC(=O)c1ccc(C(NC(=O)OCc2ccccc2)/C(=C/[C@@H](C)C(=O)N(C)C)c2cccnc2)cc1 (some centres undefined)	9%
O=C(CCSCCC(=O)NCCN1CCOCC1)NCCN1CCOCC1	2%
CN(C)S(=O)(=O)N1CCc2ccccc2C1	-1%
Cc1noc(C)c1S(=O)(=O)N(CC(=O)O)c1ccc2c(c1)OCO2	-9%
CN(C)S(=O)(=O)c1cccc(C(=O)Nc2cccnc2)c1	13%
CCCCCOc1ccc(C(=O)NC(C(=O)O)C(C)C)cc1 (centres undefined)	6%
COc1ccc(-c2[nH]ncc2Oc2ccccc2OC)c(O)c1	-13%
COc1ccccc1CN1CC2(CCN(C(=O)c3cnccn3)CC2)C1	13%
O=C(Cn1ncc2c(=O)oc3ccccc3c21)N1CCC(N2CCCCC2)CC1	3%
CCc1ccc2nc(NC3=NCN(CCN4CCOCC4)CN3)nc(C)c2c1	-11%
Cc1ccc(S(=O)(=O)N2CCCC2CO)cc1 (centres undefined)	1%
CC(=O)N1CCc2cc(S(=O)(=O)Nc3cccc(C(F)(F)F)c3)ccc21	-1%
CCCCCCn1c(N2CCN(c3ccccc3)CC2)nc2c1c(=O)n(C)c(=O)n2C	-25%
Cn1nnnc1SCC(=O)Nc1ccc(N2CCOCC2)cc1	6%
CCCC(c1nnnn1C1CCCCC1)N1CCN(c2ncccn2)CC1 (centres undefined)	-2%
O=C(CSc1ccc(Cl)cc1)NC1CCCC1	-12%
CC1CCc2cc(F)ccc2N1C(=O)CN1C(=O)c2ccccc2C1=O (centres undefined)	0%
O=C(O)c1ccccc1C(=O)O	-1%
Cc1cc(C)c2c(=O)n(-c3ccccc3)[nH]c2n1	2%
CC(=O)OC1CCC2C3CCc4cc(O)ccc4C3CCC12C (centres undefined)	11%
CC(C)(C)c1cc(CNC2CS(=O)(=O)C[C@@H]2O)cc(C(C)(C)C)c1O (some centres undefined)	-10%
COC(=O)c1ccc2c(c1)NC(=O)C(N1CCCCC1)S2 (centres undefined)	6%
COc1cccc(N2CCN(C(=O)c3cccnc3)CC2)c1	5%
Clc1ccc(Cl)c2sc(N3CCCC3)nc12	-5%
Cc1ccc2cc(CN(CC3CCCO3)C(=O)NC3CCCCC3)c(=O)[nH]c2c1C (centres undefined)	u
O=C(c1csnn1)N1CCC2(CC1)CN(c1cccc(-c3ccccc3)c1)C2	u
CC1(C)CC(=O)C2=C(C1)OC(c1cccs1)C(C#N)=C2N (centres undefined)	-11%
N#CCSc1nnc(-c2ccccc2O)n1CCc1ccccc1	-6%

Compounds listed so far containing an NH in an aromatic ring, in the order listed:
SMILES	HSD17B inh
COc1ccc(C2C(C#N)=C(N)Oc3n[nH]c(C)c32)cc1CN1CCN(c2ccc(F)cc2)CC1 (centres undefined)	u
COc1ccc(-c2[nH]ncc2Oc2ccccc2OC)c(O)c1	-13%
Cc1cc(C)c2c(=O)n(-c3ccccc3)[nH]c2n1	2%
Cc1ccc2cc(CN(CC3CCCO3)C(=O)NC3CCCCC3)c(=O)[nH]c2c1C (centres undefined)	u

Back to the main list; the seven compounds before the break are reprinted first.
SMILES	HSD17B inh
COC(=O)c1ccc2c(c1)NC(=O)C(N1CCCCC1)S2 (centres undefined)	6%
COc1cccc(N2CCN(C(=O)c3cccnc3)CC2)c1	5%
Clc1ccc(Cl)c2sc(N3CCCC3)nc12	-5%
Cc1ccc2cc(CN(CC3CCCO3)C(=O)NC3CCCCC3)c(=O)[nH]c2c1C (centres undefined)	u
O=C(c1csnn1)N1CCC2(CC1)CN(c1cccc(-c3ccccc3)c1)C2	u
CC1(C)CC(=O)C2=C(C1)OC(c1cccs1)C(C#N)=C2N (centres undefined)	-11%
N#CCSc1nnc(-c2ccccc2O)n1CCc1ccccc1	-6%
Cc1nc(NCc2ccccc2)c2nc(-c3ccccc3)n(CCN3CCOCC3)c2n1	32µM*
S=C(S)NCCN1CCNCC1	-12%[11.4 µM]
CC(C)(C)c1nnc2sc(SCC(=O)N3CCCc4ccccc43)nn2c1=O	-19%
O=C(C1CCCN(S(=O)(=O)c2ccccc2)C1)N1CCCc2ccccc21 (centres undefined)	-1%
CCOc1ccc(NC(=O)CN2CCN(CC(=O)Nc3ccc4c(c3)OCO4)CC2)cc1	10%
CCc1nc2cc(Cl)c(Cl)cc2[nH]1	3%
CC(C)NC(=O)c1ccc2c(=O)n(C3CCCC3)c(=S)[nH]c2c1	8%
CCCOC(=O)Nc1ccc(C(N)=O)cc1	10%
Cc1ccc2c(c1)N(CC(=O)N1CCN(c3nc4ccccc4s3)CC1)C(=O)C(C)O2 (centres undefined)	-6%
CCN(CCCNC(=O)c1[nH]c(C)c(C(C)=O)c1C)c1ccccc1	1%
NC(Cc1ccc2nonc2c1)C(=O)O (centres undefined)	3%
CCCCn1c(N)c(Sc2ccc(C)cc2)c(=O)[nH]c1=O	4%
COC(C(C)/C=C/CC(=O)OCCCc1ccccc1)C1CCCCC1 (centres undefined)	4%[11.4 µM]
CC(C)NC(=O)CSCc1ccccc1Cl	1%
Cc1nc(-c2ccccc2)c(Cc2ccccc2O)c(=O)[nH]1	3%[11.4 µM]
CCOc1ccc(C2CC(c3cccc(OC)c3)n3nc(N)nc3N2)cc1 (centres undefined)	13%
N#CC1=C(O)CCCn2c1nc1ccccc1c2=O	-9%
Clc1ccccc1OCCCCN1CCCC1	13%
CCCCc1cc2ccccc2c(OCCN(C)C)n1	-10%[25.6 µM]
COC(=O)c1[nH]c(C)c(/C(O)=C2\C(=O)C(=O)N(CCN3CCOCC3)C2c2cccs2)c1C (centres undefined)	-5%
CSc1nc2sc3c(c2c(=O)n1C)CCC(C)C3 (centres undefined)	-9%
O=C(CSc1c2c(nc3ccc(Cl)cc13)CCCC2)N1CCN(C(=O)c2ccco2)CC1	u
CC1(C)OC(C(=O)NC2CCCCC2)C(C(=O)NC2CCCCC2)O1 (centres undefined)	4%
O=c1c(-c2ccc(F)cc2)nc2cncnc2n1Cc1ccccc1	-10%
CC(=O)C(C)Oc1ccc2c3c(c(=O)oc2c1C)CCCC3 (centres undefined)	25µM*
CCOc1cccc(-c2cc(=O)[nH][nH]2)c1	5%
COc1ccc2[nH]c(=S)[nH]c2c1	-2%
C=CCNC(=O)c1cc(=O)c2ccccc2o1	-6%
CCOC(=O)C1CCN(C(=O)c2ccc(OC)cc2OC)CC1	0%
Cc1sc(NC(=O)CN2CCN(c3ccccn3)CC2)c(C#N)c1C	-5%
CCOC(c1cc(OC)cc([N+](=O)[O-])c1OC)C(C)C(OC)[C@@H](C)/C=C/CC(=O)OC (some centres undefined)	-2%[11.4 µM]
O=C(C1CC1)N1CCc2cc(S(=O)(=O)NCC3COc4ccccc4O3)ccc21 (centres undefined)	-10%
O=C1CC(N2CCN(c3cccc(C(F)(F)F)c3)CC2)C(=O)N1c1ccccc1 (centres undefined)	3%
CCOC(=O)c1nnn(CC(=O)Nc2cccc(OC)c2)c1C(=O)OCC	-6%
O=C(Nc1cnn(Cc2ccccc2)c1)c1nc2ncccn2n1	2%
CN(Cc1nnc(SCC(=O)NCCc2ccccc2)n1C)S(=O)(=O)c1ccccc1	-1%
COc1ccccc1N(CC(=O)NCc1cccnc1)S(C)(=O)=O	7%
COc1ccccc1Oc1ccc2c(c1)C(=O)N(c1cccc(O)c1)C2=O	-9%
Cc1cccc(N(CC(=O)Nc2c(C)n(C)n(-c3ccccc3)c2=O)S(C)(=O)=O)c1	-2%
CSC1=NCCN1C(=O)c1ccc(S(=O)(=O)N(C)C)cc1	2%

Reprinted from the part before: 6 compounds, followed by the next part.
SMILES	HSD17B inh
O=C(Nc1cnn(Cc2ccccc2)c1)c1nc2ncccn2n1	2%
CN(Cc1nnc(SCC(=O)NCCc2ccccc2)n1C)S(=O)(=O)c1ccccc1	-1%
COc1ccccc1N(CC(=O)NCc1cccnc1)S(C)(=O)=O	7%
COc1ccccc1Oc1ccc2c(c1)C(=O)N(c1cccc(O)c1)C2=O	-9%
Cc1cccc(N(CC(=O)Nc2c(C)n(C)n(-c3ccccc3)c2=O)S(C)(=O)=O)c1	-2%
CSC1=NCCN1C(=O)c1ccc(S(=O)(=O)N(C)C)cc1	2%
CS(=O)(=O)NCCSCc1ccccc1	11%
CC1(C)N=C(N)N=C(N)N1CCCCc1ccccc1	7%[11.4 µM]
CC(C)CN(C(=O)COC(=O)C12CC3CC(CC(O)(C3)C1)C2)C1CCS(=O)(=O)C1 (centres undefined)	12%
O=C(NCCO)C(c1ccccc1)c1ccccc1	-4%
COc1ccc(N2CCN(S(=O)(=O)c3ccc(C(=O)NC4CCCC4)cc3)CC2)cc1	3%
COCCn1c(C)cc(C(=O)CN2C(=O)NC3(CCCCCCC3)C2=O)c1C	-2%
COc1cccc(OCCSc2nnc3sc4ccccc4n23)c1	-2%
CC1CCCC(C)N1CCCNC(=O)c1cc2c(=O)n(C)c3ccccc3c2n1C (centres undefined)	32µM*
Cc1ccc(NC(=O)CSCC(=O)O)c(C)c1	4%
COCCN1C(=O)c2ccccc2C(C(=O)N2CCN(c3ccccn3)CC2)C1c1ccc(F)cc1 (centres undefined)	25µM*
CCn1c(SCC(=O)c2ccccc2)nc2c(c1=O)SC(C)C2 (centres undefined)	-7%
COc1cc(C)c(S(=O)(=O)NC2CC(C)(C)NC(C)(C)C2)cc1C	2%
COc1ccc(C)cc1S(=O)(=O)N(C)CC(N)=O	6%
Cc1cc(NC(=O)Cc2cccs2)nn1CC(=O)NCc1ccco1	1%
COc1ccccc1N1CCN(C(=O)c2cnn3cccnc23)CC1	6%
CC(=O)Nc1nc(C)nc(-c2ccccc2)c1C(C)=O	-15%
O=C(Nc1ccc(F)cc1)c1cc(S(=O)(=O)N2CCCCC2)cs1	-6%
COc1cccc2cc(C(=O)N(C)C3CCN(C)CC3)c(=O)oc12	-14%
CCCCC/C=C/C=C/C=O	1%
O=C(Cn1nnc(-c2ccc(Cl)cc2)n1)NC1CCN(Cc2ccccc2)CC1	6%

2 entries picked at random from the list so far:
SMILES	HSD17B inh
CC1CCCC(C)N1CCCNC(=O)c1cc2c(=O)n(C)c3ccccc3c2n1C (centres undefined)	32µM*
COc1cccc(OCCSc2nnc3sc4ccccc4n23)c1	-2%

Next records follow.
SMILES	HSD17B inh
COCCOC(=O)C1=C(N)OC2=C(C(=O)CCC2)C1c1cccnc1 (centres undefined)	1%
O=C(NCc1ccc2c(c1)OCO2)c1c(F)c(F)c(F)c(F)c1F	14%
O=C(NCCc1ccccc1)c1ccc(Br)o1	1%
COC(=O)C/C=C\[C@@H](C)[C@@H](/C=N\O[C@@H](C)c1cn([C@H](CO)Cc2ccccc2)nn1)OC	0%&-3%[11.4 µM]
Cc1cc(C(=O)OCC(=O)N2CC(C)CC(C)C2)c(C)o1 (centres undefined)	7%
COc1cccc(NC(=O)c2ccncc2)c1	6%
O=C(O)c1ccc(SSc2ccc(C(=O)O)cn2)nc1	u
CCOC(=O)Cc1csc(NC(=O)CN(C)S(=O)(=O)c2ccc3c(c2)CCC(=O)N3)n1	9%

Not all compounds are listed (hit frequency here may not be typical).
